# TRPML1 agonist – human mucolipin-1 channel agonism | Q9GZU1 | TRPML1-expressing cells, Ca2+ dye fluorescence, FDSS; host cell line not named in the record; reference of the full effect not given here | activation, % (no concentration beside the values) | 410,000 tested, 0.12% active; in the data active = activation above about 50%; inconclusive = about 30% to 50%; inactive = below about 30%; also: 0% is about no effect; the text of the record puts the active cut at 80%
# Target sequence (Q9GZU1 whole entry, looked up): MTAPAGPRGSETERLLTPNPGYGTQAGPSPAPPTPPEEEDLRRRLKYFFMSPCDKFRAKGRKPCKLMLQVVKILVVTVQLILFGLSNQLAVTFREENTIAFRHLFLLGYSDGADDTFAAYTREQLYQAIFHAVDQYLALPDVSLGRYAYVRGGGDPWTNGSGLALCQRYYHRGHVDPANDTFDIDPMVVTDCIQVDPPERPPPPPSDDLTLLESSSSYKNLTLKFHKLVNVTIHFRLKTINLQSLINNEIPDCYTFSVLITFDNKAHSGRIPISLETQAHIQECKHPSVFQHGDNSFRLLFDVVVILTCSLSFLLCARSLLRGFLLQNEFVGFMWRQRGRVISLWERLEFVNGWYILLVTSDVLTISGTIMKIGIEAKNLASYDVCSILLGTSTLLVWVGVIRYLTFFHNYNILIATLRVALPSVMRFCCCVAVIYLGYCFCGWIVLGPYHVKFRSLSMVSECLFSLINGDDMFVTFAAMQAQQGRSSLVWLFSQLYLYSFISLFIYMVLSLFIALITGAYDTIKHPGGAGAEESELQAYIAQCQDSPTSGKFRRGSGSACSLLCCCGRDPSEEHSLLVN
#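 Calcium fluorescence on an FDSS kinetic reader gave the read-out. Tet-induced TRPML1-DL cells were plated overnight, dye-loaded (Ca8 with quencher, 45-90 min, room temperature, dark), then read 110 s after compound addition, and again 110 s after 4uM final 54-4 (EC80).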
# PINK1 expr mod – PINK1 expression modulation | PINK1 immunofluorescence, high-content cytometry, 24 h | Potency, µM (series often up to 76.6 µM), for the others: at the highest dose activation (PINK1 increase), actives largely listed as activators | 410,000 tested, 0.2% active | AID 624263; active = well fitted activation curve with a large enough effect; inconclusive = small, poorly fitted or top-dose-only effect; inactive = flat fitted curve, though single readings scatter; cell line not stated here;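 also: potency is read from the fitted curve at half-maximal effect; % of control where 0% means no effect; nearly all actives have a fitted effect of over 65% in size; a mitochondrial uncoupler was the plate control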
#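 Decision-based qHTS: stable cells, 24 h exposure to five compound concentrations, CCCP as control. Fixed cells stained for PINK1 plus nuclear, mitochondrial and cell markers, cytometer read.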
# An asterisk follows results filed as active; ? = inconclusive. A portion of the library; the hit share may differ from the screen's.
# Second line of a record: TRPML1 agonist | PINK1 expr mod
- CCc1ccc(CNC(=O)c2cc3c(s2)-c2ccccc2OC3)cc1
    3.1 | 8.1%
- O=C(NCc1nc(-c2ccccc2)no1)c1ccco1
    -0.7 | 0.9%
- CCN1CCN(c2cc3c(cc2F)c(=O)c(S(=O)(=O)c2cc(C)cc(C)c2)cn3CC)CC1
    -0.3 | 20.6%
- CCNC(=O)CCSc1nnc(-c2ccc(O)cc2)o1
    2.1 | 5.4%
- O=C(NCc1ccccc1)C(=O)NCC(c1cccs1)S(=O)(=O)c1cccs1 (stereo not drawn)
    0.1 | 0.5%
- CCOc1ccccc1C(=O)Nc1nc2c(s1)CC(C)CC2 (stereo not drawn)
    -1.0 | 12.5%
- CS(=O)(=O)c1ncc(Cl)c(C(=O)Nc2c(C(=O)c3ccc(Cl)cc3)oc3ccccc23)n1
    -0.7 | 2.6%
- COc1ccc(-c2nn(-c3ccccc3)cc2C(=O)Nc2ccccc2OC)cc1
    0.8 | 0.2%
- O=C(Cn1c(=O)oc2cc(S(=O)(=O)N3CCCCCC3)ccc21)NCc1ccccc1Cl
    2.1 | 2.4%
- O=C(Nc1ccc2c(c1)OCO2)c1cc(-c2ccc(Br)cc2)on1
    0.0 | 1.9%
- CN(C)c1ccc(CNC(=O)c2cnc3sc(N4CCCC4)nn3c2=O)cc1
    0.8 | 0.1%
- COc1cccc(CNC(=O)c2sc3ncccc3c2-n2c(C)ccc2C)c1OC
    3.2 | 0.3%
- Cc1ccc(NC(=O)Cn2c(SCc3cccc(F)c3)nc3ccncc32)c(C)c1
    -0.2 | 6.7%
- CCOc1ccc(OCC)c(NC(=O)c2nnn(CC(=O)Nc3cc(Cl)ccc3OC)c2N)c1
    -1.1 | 3.5%
- Cc1ccc(Cl)cc1N1CCN(C(=O)CCc2nnc3n(C)c(=O)c4ccccc4n23)CC1
    2.5 | -0.4%
- CCOC(=O)C1CCN(c2nc3ccccc3nc2Cl)CC1
    -0.3 | 3.4%
- CCc1ccc(N2C(=O)CS(=O)(=O)C23C(=O)N(Cc2ccccc2F)c2ccccc23)cc1 (stereo not drawn)
    0.7 | -5.7%
- CCOC(=O)c1cccc(NC(=O)NCc2ccc3c(c2)CCN3C(=O)CC)c1
    1.6 | 0.6%
- Cc1ccc(-n2c(=O)c3c4c(sc3n(Cc3cccc(Cl)c3)c2=O)CCC4)cc1C
    -0.5 | 0.1%
- CN(C)c1ccc(NC(=O)Cn2cc(S(=O)(=O)Cc3ccccc3Cl)c3ccccc32)cc1
    -0.6 | 6.9%

# Reprinted from the part before: 5 entries, followed by the next part.
# Second line of a record: TRPML1 agonist | PINK1 expr mod
- CCOC(=O)C1CCN(c2nc3ccccc3nc2Cl)CC1
    -0.3 | 3.4%
- CCc1ccc(N2C(=O)CS(=O)(=O)C23C(=O)N(Cc2ccccc2F)c2ccccc23)cc1 (stereo not drawn)
    0.7 | -5.7%
- CCOC(=O)c1cccc(NC(=O)NCc2ccc3c(c2)CCN3C(=O)CC)c1
    1.6 | 0.6%
- Cc1ccc(-n2c(=O)c3c4c(sc3n(Cc3cccc(Cl)c3)c2=O)CCC4)cc1C
    -0.5 | 0.1%
- CN(C)c1ccc(NC(=O)Cn2cc(S(=O)(=O)Cc3ccccc3Cl)c3ccccc32)cc1
    -0.6 | 6.9%
- Cc1cccc(C(C)C)c1NC(=O)Cn1c(=O)oc2cc(S(=O)(=O)N3CCCC3)ccc21
    0.2 | -1.0%
- Cc1ccccc1-c1nc(CS(=O)(=O)CC(=O)Nc2cccc(C(F)(F)F)c2)c(C)o1
    0.0 | 11.5%
- Cc1cccc(NS(=O)(=O)c2ccc3c(c2)n(C)c(=O)n3C)c1C
    -0.2 | -0.3%
- COc1cccc(CC(=O)NCc2ccc3c(c2)CCN3C(C)=O)c1
    0.9 | -0.6%
- COc1ccc(Cn2nnnc2C(c2ccccn2)N2CCN(c3ccc(O)cc3)CC2)cc1 (stereo not drawn)
    -0.4 | -0.9%
- Cn1c(=O)c2c(-c3ccc(Br)cc3)n(CCc3ccccc3)cc2n(C)c1=O
    3.2 | -1.1%
- COc1cc(-c2nc(-c3ccccc3)c(-c3ccc(Br)cc3)[nH]2)cc(OC)c1O
    0.0 | ?
- Cc1ccc(CNC(=O)CCCN2C(=O)CCn3nc(-c4cccn4C)cc32)cc1
    2.3 | 0.1%
- Cc1cccc(-c2noc(-c3cc(C(C)C)[nH]n3)n2)c1
    -0.7 | 5.5%
- Cc1ccsc1CN(Cc1ccco1)c1cnc(S(C)(=O)=O)nc1C(=O)Nc1ccc(Cl)cc1
    0.1 | -1.6%
- Cc1nn(CC(=O)N2CCC(C)CC2)c(=O)c2cc3sccc3n12
    -0.9 | -2.4%
- CCOC(=O)c1c(-c2ccc(C)cc2)csc1NC(=O)c1cc(-c2ccc(C)c(F)c2)on1
    -0.5 | 0.4%
- Cc1cccc(CSc2ncc(Cl)c(C(=O)Nc3sc4c(c3C#N)CCCC4)n2)c1
    -0.4 | 1.8%
- CCC(C(=O)Nc1cc(Cl)ccc1OC)n1nc(-c2ccccc2)ccc1=O (stereo not drawn)
    1.9 | 2.3%
- CN(C(=O)CSc1nc2ccccc2n1Cc1ccccc1C#N)c1ccccc1
    1.7 | -0.9%
- CCc1ccccc1N(C)C(=O)c1cn(CC(C)C)c(=O)c2cc(OC)c(OC)cc12
    0.4 | 0.8%
- COc1ccccc1CNC(=O)CCc1c(C)nc2cc(-c3ccc(Cl)cc3)nn2c1C
    -0.5 | 1.2%
- CCCCOC(=O)c1ccc(NC(=O)/C(C#N)=C/c2ccc(-c3ccccc3)o2)cc1
    12.1 | 2.4%
- CCc1ccc(NC(=O)c2ccc(F)c(S(=O)(=O)NCCc3ccc(OC)c(OC)c3)c2)cc1
    0.5 | -0.4%
- Cc1ccc(NC(=O)CSc2nc(-c3ccc(C(C)(C)C)cc3)nc3cc(=O)[nH]n23)cc1C
    -0.8 | 28.3%
- COc1ccc(N2CCN(C(=O)CCNS(=O)(=O)c3ccc4c(c3)CCN4C(=O)C3CC3)CC2)cc1
    -0.1 | -4.3%
- COc1ccccc1CCNC(=O)c1ccc(NC(=O)N2CC(C)Sc3ccccc32)cc1 (stereo not drawn)
    2.0 | -2.0%
- NCc1cn(Cc2ccccc2)nc1-c1ccccc1
    -0.5 | -0.5%
- COc1cc(OC)c(N(C)C(=O)c2cc3c(=O)oc4ccccc4c3s2)cc1Cl
    -0.4 | 1.0%
- Cc1ccc2cccc(NC(=O)C(C)(C)Oc3ccc(Br)cc3)c2n1
    1.4 | 6.7%
- Cc1ccc(C)c(OC(=O)CSc2nnc(CNC(=O)c3ccccc3)o2)c1
    0.0 | 0.3%
- CCc1ccc2[nH]c(=O)c(CN(Cc3ccccc3)Cc3nnnn3C(C)(C)C)cc2c1
    -0.4 | 5.2%
- COc1ccccc1N1CCN(c2nc3ccc(C)cc3nc2-n2nc(C)cc2C)CC1
    0.9 | 4.1%
- COc1ccc(-n2c(=O)c3c(c4cc(OC)ccc4n3C)n(Cc3cccc(C)c3)c2=O)cc1
    0.1 | 0.8%
- COc1ccc(-n2c(-c3ccc(C)cc3)cc3c2CC(C)(C)CC3=O)c(OC)c1
    1.1 | 2.7%
- Cc1cccc(NC(=O)Cn2ncc3c4ccccc4n(Cc4ccccc4)c3c2=O)c1C
    2.1 | 4.1%
- Cc1cccc2sc(N(Cc3cccnc3)C(=O)C3COc4ccccc4O3)nc12 (stereo not drawn)
    0.4 | 8.3%
- COc1ccccc1-c1noc(CSc2nnc(-c3ccccc3)n2-c2ccc(C)c(C)c2)n1
    1.0 | -0.6%
- O=C(CC1N=C2c3ccccc3N=C(SCC(=O)Nc3ccc(F)cc3)N2C1=O)NCc1ccco1 (stereo not drawn)
    0.8 | 1.1%
- Cc1cc(C)c(/C=C/c2onc(C)c2S(=O)(=O)N2CCC(C(=O)N3CCN(c4ccccc4)CC3)CC2)c(C)c1
    -0.8 | -0.8%
- O=c1c(=O)n(-c2ccc(F)c(F)c2)ccn1Cc1ccc(F)cc1Cl
    -0.2 | 0.1%
- COc1ccccc1-c1cc2nc(C)c(CCC(=O)Nc3ccc(Br)c(C)c3)c(C)n2n1
    0.1 | -0.2%
- O=C(CSc1nc(=O)n(CCN2CCOCC2)c2c1CCC2)Nc1ccccc1
    -0.5 | 2.9%
- COc1ccc2ncc3c(-c4ccc(C)c(C)c4)nn(CC(=O)NC4CCCC4)c3c2c1
    0.9 | 5.4%
- COc1ccc(CCNC(=O)CCSCc2ccccc2Cl)cc1OC
    -0.9 | 0.4%
- CCc1ccc(S(=O)(=O)c2nnn3c2nc(N2CCCC2)c2sccc23)cc1
    -0.1 | -0.5%
- CCOC(=O)c1ccc(NC(=O)CCn2c(=O)c3cccn3c3ccccc32)cc1
    1.3 | -0.4%
- Cc1nc2ccc(S(=O)(=O)NC(C(=O)N3CCN(c4ccc(Cl)cc4)CC3)C(C)C)cc2s1 (stereo not drawn)
    -0.9 | 1.6%
- Cc1ccccc1-c1nc2cc(NC(=O)COc3ccc(F)cc3)ccc2o1
    4.7 | 12.0%
- CCc1sc(Nc2ccc(Cl)cc2)nc1-c1cc2cccc(OC)c2oc1=O
    0.4 | 1.0%
- Cc1ccc(NC(=O)CN(C)S(=O)(=O)c2ccc3c(c2)n(C)c(=O)c(=O)n3C)cc1F
    4.4 | 5.0%
- CCCN1CCN(c2cc3c(cc2F)c(=O)c(S(=O)(=O)c2ccc(CC)cc2)cn3CC)CC1
    -0.5 | 7.4%
- COc1ccc(-c2nnc(SCC(=O)c3ccc([N+](=O)[O-])cc3)o2)cc1OC
    1.6 | 1.6%
- COc1ccc(-n2c(=O)c3c4c(sc3n(Cc3cc(=O)n5c(C)cccc5n3)c2=O)CCC4)c(OC)c1
    1.1 | 1.7%
- Cc1ccc(C)c(OCCOCCn2c(-c3ccc(Br)cc3)nc3ccccc3c2=O)c1C
    -0.8 | -0.7%
- CCOc1ccccc1NC(=O)CSc1nc2c(oc3ccccc32)c(=O)n1C(C)C
    -0.7 | -0.1%
- Cc1ccc(-n2c(=O)c3c4c(sc3n(Cc3ccccc3F)c2=O)CCC4)cc1C
    -0.6 | 2.3%
- COc1ccc2c(c1)CC(C(=O)Nc1cccc(C)c1C)CO2 (stereo not drawn)
    0.3 | 1.0%
- CC1CCc2nc3ncn(Cc4cccc(F)c4)c(=O)c3cc2C1 (stereo not drawn)
    2.1 | 0.3%
- CC(C)CCNC(=O)c1cc(-c2cccnc2)nc2ccc(S(=O)(=O)N3CCC(C)CC3)cc12
    3.3 | -0.4%
- CN(N=O)c1ccc(/C=C/c2ccccc2)cc1
    -0.8 | -0.6%
- Cc1ccc(Cl)cc1NC(=O)c1ccc(-c2nc(CSc3ccccc3)c(C)o2)cc1
    -0.2 | 2.4%
- O=C(NCc1ccc(Cl)cc1)C1CCN(c2ncnc3c2nc2n3CCCCC2)CC1
    1.5 | 0.1%
- CCc1ccccc1NC(=O)CSc1nc(C)c(C(=O)Nc2ccccc2)c(-c2ccc(Cl)cc2)c1C#N
    -0.5 | 0.3%
- Cc1cccc(NC(=O)CN2C(=O)CC(c3ccccc3)Sc3ccccc32)c1 (stereo not drawn)
    2.4 | 0.1%

# The results go on.
# Second line of a record: TRPML1 agonist | PINK1 expr mod
- Cc1cccc(C(=O)Nc2c3c(nn2-c2ccc(Cl)cc2)CS(=O)(=O)C3)c1
    0.7 | -0.6%
- CC(=O)c1ccc(NC(=O)CSc2nc(-c3cccc(F)c3)nc3c2c(=O)n(C)c(=O)n3C)cc1
    -0.1 | -0.4%
- CCOc1ccc(-n2c(Cc3ccccc3)nnc2SCc2nc(-c3cccs3)no2)cc1
    -0.1 | -0.5%
- COc1ccc(-n2nc(C(=O)Nc3ccc(Cl)cn3)c3c4ccccc4n(C)c3c2=O)cc1
    2.0 | 1.9%
- Cc1ccccc1CSCc1ccc(C(=O)NCCc2ccccc2)o1
    6.2 | 13.5%
- COc1ccc(C(=O)c2cn(Cc3ccc(F)cc3)c3ccc(C)cc3c2=O)cc1
    1.3 | 2.1%
- O=c1cc(-c2ccccc2)n2c(SCc3ccc([N+](=O)[O-])cc3)nnc2[nH]1
    1.1 | 7.1%
- COc1cc(C2c3c(-c4ccccc4O)n[nH]c3C(=O)N2Cc2ccco2)ccc1OCC(C)C (stereo not drawn)
    3.2 | 10.1%
- Cc1cc(C)cc(NC(=O)c2cc(S(=O)(=O)NCCC3=CCCCC3)ccc2F)c1
    2.7 | 11.2%
- Cc1cc(C)cc(N2C(=O)N(Cc3cccc(F)c3)c3ccccc3S2(=O)=O)c1
    -0.2 | 2.1%
- Cc1cc(S(=O)(=O)NCC(c2ccco2)S(=O)(=O)c2ccccc2)ccc1F (stereo not drawn)
    0.6 | 0.4%
- COc1ccc(C(=O)NCC(c2ccc3c(c2)OCO3)N2CCOCC2)cc1 (stereo not drawn)
    -0.2 | 0.7%
- CCN(CC)c1ccc(-c2nnc(SCC(=O)NCc3ccco3)n2CC)cc1
    -1.4 | -1.0%
- Cc1cccc(OCC(=O)Nc2c(C)ccc3nsnc23)c1C
    -0.7 | 13.6%
- CCOC(=O)c1ccccc1NC(=O)CN(c1cccc(C)c1C)S(=O)(=O)c1ccccc1
    0.1 | 1.3%
- CCCC(=O)Nc1ccccc1C(=O)OCc1cc(=O)n2nc(C(C)C)sc2n1
    3.5 | 0.9%
- O=C(Nc1ccccc1C(F)(F)F)C1CCN(c2nnc(-n3cccc3)s2)CC1
    3.2 | 4.6%
- CCc1ccc(-c2[nH]c3c(c2-c2c(-n4cccc4)n(C)c(=O)[nH]c2=O)c(=O)[nH]c(=O)n3C)cc1
    -0.1 | 3.7%

# Screens as filed in PubChem.
